Assay outcomes from PubChem BioAssay.
Ecoli rRNA inh = selective bacterial rRNA inhibition in E. coli; E. coli WT GFP vs humanized-ribosome RFP mutants, fluorescence, 24 h; active compounds read low; DMSO median 0, no signal -100; GFP signal change (wild-type ribosome), % (no concentration beside the values); hit rate 1.6% among 350,000;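 active = significant combined selectivity score with lowered wild-type GFP, culture density cut under 30%, mutant RFP and density less affected; inactive = any of these conditions unmet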; also: one replicate is shown; some compounds called inactive have numbers as strong as hits
Ecoli rRNA inh OD600 = further read-out of Ecoli rRNA inh, marked with its call; OD600 change, %; measured here: OD600 growth;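 optical density of the mix in the first replicate; 0 = DMSO median and -100 = no signal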
Ecoli rRNA inh RFP = second read-out of Ecoli rRNA inh, no call of its own (marks repeat the call); RFP signal change, %; measured here: RFP humanized mutant strains;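 first replicate; 0 = DMSO median and -100 = no signal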
An asterisk follows results filed as active; & = joins results of further samples. Not all compounds are listed (hit frequency here may not be typical).

The opening 3 entries, to show the layout:
SMILES	Ecoli rRNA inh	Ecoli rRNA inh OD600	Ecoli rRNA inh RFP
CO[C@H]1CN(C)C(=O)c2ccc(NC(C)=O)cc2OC[C@@H](C)N(Cc2cccnc2)C[C@H]1C	1	8	-1.8
O=C(Nc1ccc(F)cc1)N1CC(=O)N2[C@H](CO)[C@H](c3ccc(-c4ccc(F)cc4)cc3)[C@H]2C1	-42	-70	-1.2
CCCNC(=O)N1[C@H](CO)[C@@H](c2ccc(C3=CCCC3)cc2)[C@@H]1CNC(=O)CC	-7	-11	4.2

This part in full, from the start:
SMILES	Ecoli rRNA inh	Ecoli rRNA inh OD600	Ecoli rRNA inh RFP
CO[C@H]1CN(C)C(=O)c2ccc(NC(C)=O)cc2OC[C@@H](C)N(Cc2cccnc2)C[C@H]1C	1	8	-1.8
O=C(Nc1ccc(F)cc1)N1CC(=O)N2[C@H](CO)[C@H](c3ccc(-c4ccc(F)cc4)cc3)[C@H]2C1	-42	-70	-1.2
CCCNC(=O)N1[C@H](CO)[C@@H](c2ccc(C3=CCCC3)cc2)[C@@H]1CNC(=O)CC	-7	-11	4.2
O=C(c1cnccn1)N1CC(=O)N2[C@H](CO)[C@H](c3ccc(C#CC4CCCC4)cc3)[C@@H]2C1	-1	4	4.1
CO[C@@H]1CN(C)C(=O)c2ccc(NC(C)=O)cc2OC[C@@H](C)N(C(=O)c2ccccc2F)C[C@@H]1C	1	0	-0.6
COc1ccc2c3c(n(C)c2c1)[C@H](CO)N(C(=O)CN(C)C)CC31CN(Cc2cccnc2)C1	2	9	-0.8
COc1ccccc1S(=O)(=O)N1CC[C@@H]2[C@@H](CO)N(C)c3ccc(-c4ccc(C#N)cc4)cc3[C@@H]21	1	6	2.6
C[C@H](CO)N1C[C@H](C)[C@@H](CN(C)Cc2cccc(O)c2)OCc2ccccc2-c2ccccc2C1=O	2	3	-1.4
C[C@@H]1CN([C@H](C)CO)C(=O)CCCn2cc(nn2)CO[C@@H]1CN(C)C(=O)Nc1cccc(Oc2ccccn2)c1	2	-4	0.5
CNC[C@H]1Oc2ncc(-c3ccc(OC)cc3)cc2C(=O)N([C@H](C)CO)C[C@H]1C	1	-3	-1.2
COCC(=O)Nc1ccc2c(c1)OC[C@@H](C)N(CC1CCCCC1)C[C@@H](C)[C@H](OC)CN(C)C2=O	0	-2	0.7
Cc1noc(C)c1NC(=O)Nc1ccc2c(c1)C(=O)N([C@@H](C)CO)C[C@@H](C)[C@H](CN(C)Cc1ccccc1)OCCCC[C@H](C)O2	5	1	-1.6
C[C@@H]1CCCCO[C@@H](CN(C)S(=O)(=O)c2ccc(Cl)cc2)[C@H](C)CN([C@@H](C)CO)C(=O)c2cc(NC(=O)Nc3cccc4ccccc34)ccc2O1	6	9	-0.4
CC(C)NC(=O)N(C)C[C@@H]1Oc2ccc(N)cc2C(=O)N(C)C[C@@H]1C	2	3	-0.1
C/C=C/c1ccc([C@@H]2[C@@H](CO)N(C(=O)CC)[C@@H]2CN(C)S(C)(=O)=O)cc1	1	5	0.1
O=C(C[C@@H]1C[C@@H]2c3cc(NC(=O)Nc4ccccc4)ccc3O[C@@H]2[C@@H](CO)O1)NCc1ccccn1	-7	15	9.7
CN(C)C(=O)c1cccc(-c2ccc3c(c2)[C@H]2[C@H](CCN2S(=O)(=O)c2cn(C)cn2)[C@@H](CO)N3)c1	7	25	-0.1
C[C@@H]1CN([C@@H](C)CO)C(=O)c2cc(C#Cc3ccccn3)cnc2O[C@@H]1CN(C)CC1CCCC1	5	10	3.5
CN(C[C@H]1[C@H](c2ccccc2)[C@@H](CO)N1CC1CC1)C(=O)c1cccc(F)c1	-2	3	-1.6
O=C(C[C@H]1CC[C@H](NC(=O)c2ccncc2)[C@@H](CO)O1)NCC1CCCCC1	1	-1	-2.2
COCC(=O)N1C[C@@H]2[C@H](c3ccccc31)[C@H](CO)N2Cc1cc(F)ccc1F	0	-3	-0.9
COc1ccc(C[C@@H]2CCc3cnnn3COCCNC2=O)cc1	3	3	-4.0
CC(C)NC(=O)N1CC2(C1)[C@@H](c1ccccc1)[C@@H](CO)N2C(=O)C1CCCCC1	3	5	-1.1
CCC(=O)N[C@@H]1C=C[C@H](CC(=O)NCC2CC2)O[C@H]1CO	-1	-9	-0.8
CCCNC(=O)N1[C@@H](CO)[C@@H](c2ccc(C3=CCCC3)cc2)[C@@H]1CNC(C)=O	-3	3	0.6

Random excerpt: five entries already listed.
SMILES	Ecoli rRNA inh	Ecoli rRNA inh OD600	Ecoli rRNA inh RFP
C[C@@H]1CN([C@H](C)CO)C(=O)CCCn2cc(nn2)CO[C@@H]1CN(C)C(=O)Nc1cccc(Oc2ccccn2)c1	2	-4	0.5
CCCNC(=O)N1[C@@H](CO)[C@@H](c2ccc(C3=CCCC3)cc2)[C@@H]1CNC(C)=O	-3	3	0.6
O=C(C[C@@H]1C[C@@H]2c3cc(NC(=O)Nc4ccccc4)ccc3O[C@@H]2[C@@H](CO)O1)NCc1ccccn1	-7	15	9.7
O=C(Nc1ccc(F)cc1)N1CC(=O)N2[C@H](CO)[C@H](c3ccc(-c4ccc(F)cc4)cc3)[C@H]2C1	-42	-70	-1.2
CCCNC(=O)N1[C@H](CO)[C@@H](c2ccc(C3=CCCC3)cc2)[C@@H]1CNC(=O)CC	-7	-11	4.2

Additional entries.
SMILES	Ecoli rRNA inh	Ecoli rRNA inh OD600	Ecoli rRNA inh RFP
CCC(=O)N1[C@H](CO)[C@H](c2ccc(-c3cccc(F)c3)cc2)[C@@H]1CNC(C)=O	-3	-2	-2.6
COc1ccc2c3c(n(C)c2c1)[C@@H](CO)NCC31CN(Cc2ccncc2)C1	0	-3	1.3
C[C@H](CO)N1C[C@H](C)[C@H](CN(C)CC2CC2)Oc2ncc(-c3ccc(C#N)cc3)cc2C1=O	0	12	-2.4
C[C@@H]1CN([C@H](C)CO)C(=O)c2cc(NC(=O)Cc3ccccc3)ccc2O[C@@H]1CN(C)Cc1ccc2c(c1)OCO2	4	9	0.4
COc1ccc2c3c(n(C)c2c1)[C@@H](CO)N(S(C)(=O)=O)CC31CCN(C(=O)c2ccccn2)CC1	-1	0	-2.1
O=C(C[C@H]1C=C[C@@H](NC(=O)c2ccncc2)[C@@H](CO)O1)NCc1ccncn1	-1	-6	0.0
OC[C@H]1Nc2ccc(C#Cc3ccc(F)cc3)cc2[C@@H]2[C@H]1CCN2Cc1nccs1	2	-7	8.3
CCC(=O)N1[C@H](CO)[C@H]2c3ccccc3N(S(=O)(=O)c3ccc(F)cc3)C[C@H]21	0	-3	0.2
O=C(CN1CCOCC1)N[C@@H]1CC[C@H](CCn2cc(C3CCCC3)nn2)O[C@@H]1CO	1	4	-0.6
COCC(=O)N(C[C@H]1N[C@H](CO)[C@@H]1c1ccc(C2=CCCC2)cc1)C1CCCC1	0	-14	7.0
CC(C)NC(=O)N(C)C[C@@H]1Oc2ncccc2C(=O)N(C)C[C@@H]1C	1	-1	0.1
Fc1ccc(-c2ccc(C3[C@H]4CNC[C@@H]3N4Cc3ccccn3)cc2)cc1 (stereo partly drawn)	10	20	2.4
C[C@@H]1CN([C@@H](C)CO)C(=O)CCCn2nncc2CO[C@@H]1CN(C)Cc1ccncc1	1	2	0.6
N#Cc1cccc(-c2ccc(C3[C@@H]4CN(C(=O)Nc5ccc6c(c5)OCO6)C[C@H]3N4)cc2)c1 (stereo partly drawn)	-12&-2	-5&7	-3.6&1.8
N[C@H]1CC[C@H](CCn2cc(C3CC3)nn2)O[C@@H]1CO	2	0	-0.5
Cc1noc(C)c1S(=O)(=O)N(C)C[C@H]1Oc2ccc(N(C)C)cc2CC(=O)N([C@@H](C)CO)C[C@H]1C	2	-3	1.6
C[C@H]1CN([C@@H](C)CO)S(=O)(=O)c2ccc(C3=CCCC3)cc2O[C@H]1CN(C)S(C)(=O)=O	-2	-9	0.9
O=C(Nc1ccc2c(c1)[C@H]1C[C@H](CC(=O)N3CCCCC3)O[C@H](CO)[C@H]1O2)NC1CCCCC1	-4	-1	-1.4
COc1ccc2c3c([nH]c2c1)[C@@H](CO)N(Cc1ccccc1F)CC31CCN(S(C)(=O)=O)CC1	2	2	3.1
CNC[C@@H]1Oc2c(NS(=O)(=O)c3ccc(OC)cc3)cccc2C(=O)N([C@H](C)CO)C[C@H]1C	12	8	-0.4
CC(C)CC#Cc1ccc([C@@H]2[C@@H](CO)N3C(=O)CN(S(=O)(=O)c4cccc(F)c4)C[C@H]23)cc1	1	-10	3.6
CCCNC(=O)Nc1ccc2c(c1)C(=O)N(C)C[C@@H](OC)[C@@H](C)CN(C(=O)c1ccccc1F)[C@H](C)CO2	-2	-4	1.3
N#Cc1cccc(-c2ccc(C3[C@@H]4CN(C(=O)Nc5ccccc5)C[C@H]3N4)cc2)c1 (stereo partly drawn)	-3&-6	-6&-7	2.3&1.6
CC(=O)N1[C@H](CO)[C@@H](c2ccc(C3=CCCC3)cc2)[C@@H]1CNC(=O)CN(C)C	4	7	0.1
CCCC#Cc1ccc([C@@H]2[C@@H](CO)N3C(=O)CN(C(=O)c4cccnc4)C[C@H]23)cc1	3	14	2.0

Next section
SMILES	Ecoli rRNA inh	Ecoli rRNA inh OD600	Ecoli rRNA inh RFP
Cc1ccccc1S(=O)(=O)N1CC(=O)N2[C@@H](CO)[C@H](c3ccc(C#Cc4ccccc4)cc3)[C@@H]2C1	2	13	-1.2
COCC(=O)N1C[C@@H](C)[C@H](OC)CN(C)C(=O)c2ccc(NC(=O)Nc3cccc(F)c3)cc2OC[C@H]1C	-3	-3	1.0
C(=C\c1ccc(C2[C@H]3CNC[C@@H]2N3Cc2ccccn2)cc1)/c1ccccc1 (stereo partly drawn)	-1&2	-1&10	2.5&6.7
CC(C)NC(=O)Nc1ccc2c(c1)CC(=O)N(C)C[C@H](C)[C@H](CN(C)C(=O)NC(C)C)O2	3	-5	-1.4
O=C(c1cccnc1)N1C[C@@H]2N[C@H](C1)C2c1ccc(-c2ccccc2)cc1 (stereo partly drawn)	1	1	2.2
O=S(=O)(c1ccc(-c2ccccc2)cc1)N1C[C@@H]2N[C@H](C1)[C@@H]2c1ccc(-c2cccnc2)cc1	-33	-58	32
N#C[C@@H]1[C@@H](c2ccccc2C2=CCCCC2)[C@@H](CO)N1C(=O)Cc1ccncc1	-4	-15	-0.7
C/C=C/c1ccc2c(c1)O[C@@H](CN(C)C(=O)C1CC1)[C@H](C)CN([C@@H](C)CO)S2(=O)=O	-3	-6	-3.2
O=C(C1CCCCC1)N1CC(=O)N2[C@H](CO)[C@H](c3ccc(-c4cccnc4)cc3)[C@@H]2C1	3	5	-5.4
Cc1cccc(-c2ccc([C@H]3[C@H](CO)N4C(=O)CN(C(=O)Cc5ccccn5)C[C@@H]34)cc2)c1	-1	3	-0.9
CN1[C@@H]2Cn3c(ccc(/C=C/c4ccccc4)c3=O)[C@H]1[C@@H](C(=O)NC1CCCC1)[C@@H]2CO	-1	6	-2.3
CO[C@H]1CN(C)C(=O)c2ccc(NS(=O)(=O)CC(F)(F)F)cc2OC[C@@H](C)N(C(=O)NC(C)C)C[C@H]1C	0	9	-3.8
C[C@@H]1CN([C@H](C)CO)C(=O)c2cccc(NC(=O)Nc3ccc(C(F)(F)F)cc3)c2O[C@H]1CN(C)S(=O)(=O)c1ccccc1	-3	-4	0.9
CC=Cc1ccc2n(c1=O)C[C@@H]1[C@@H](CO)[C@H](C(=O)NCCc3cn(C)cn3)N(C(=O)C3CCCC3)[C@H]21 (mixture of isomers)	3	9	-0.6
COC(=O)C[C@H]1CC[C@@H]2[C@H](COc3ccc(NC(=O)c4ccc(F)c(F)c4)cc3C(=O)N2C)O1	0	0	1.1
Cc1noc(C)c1NC(=O)N(C)C[C@H]1OCCCC[C@@H](C)Oc2ccc(NC(=O)c3ccccc3)cc2C(=O)N([C@@H](C)CO)C[C@@H]1C	0	-1	-1.0
C[C@H](CO)N1C[C@H](C)[C@H](CN(C)C(=O)Nc2ccc(F)cc2)Oc2ccc(NC(=O)c3ccncc3)cc2CC1=O	6	3	-3.7
C[C@H]1CN([C@@H](C)CO)C(=O)Cc2cc(NC(=O)Nc3ccc4c(c3)OCO4)ccc2O[C@@H]1CN(C)S(C)(=O)=O	4	4	-1.1
C[C@@H]1CN(C)C(=O)c2cccc(N(C)C)c2O[C@@H]1CN(C)C(=O)OC(C)(C)C	-2	-7	0.2
CC(C)NC(=O)N1[C@H](C#N)[C@H](c2ccc(C#CC3CCCC3)cc2)[C@@H]1CO	-52	-72	-7.9
CCCNC(=O)N1[C@H](CNC(C)=O)[C@@H](c2ccc(C3=CCCC3)cc2)[C@@H]1CO	-3	2	1.4
O=C(C[C@H]1C=C[C@@H](NC(=O)C2CCOCC2)[C@H](CO)O1)Nc1ccccc1	2	5	-0.6
CNC[C@H]1Oc2ccc(NC(C)=O)cc2C(=O)N(C)C[C@@H]1C	1	7	-1.9
C/C=C/c1ccc([C@@H]2[C@@H](CN(C)C(=O)C3CC3)N(C(=O)CC)[C@H]2CO)cc1	1	4	-1.9
COc1ccc2c3c([nH]c2c1)[C@@H](CO)N(Cc1ccccn1)CC31CN(C(C)=O)C1	4	11	-4.7
O=C1CN(Cc2ccc(F)cc2)C[C@@H]2[C@@H](c3ccc(-c4ccccc4F)cc3)[C@@H](CO)N12	-11	-39	19
CCCC#Cc1ccc([C@H]2[C@@H](CO)N3C(=O)CN(C(=O)c4ccccc4)C[C@@H]23)cc1	4	4	-0.1
CC(C)CC#Cc1ccc2c(c1)O[C@@H](CN(C)C(=O)C1CC1)[C@H](C)CN([C@H](C)CO)S2(=O)=O	-4	-36	3.6
COc1ccc(S(=O)(=O)N(C)C[C@H]2OCc3cn(nn3)CCCC(=O)N([C@H](C)CO)C[C@H]2C)cc1	3	1	-2.5
COCC(=O)NC[C@H]1N[C@H](CO)[C@H]1c1ccc(C2=CCCC2)cc1	-1	12	0.3
